miR-21 reporter: miR-21 reporter, rising signal; HeLa miR-21 FLuc reporter, luciferase, 48 h; Potency, µM (titrated, usually from 38.3 µM), without a hit: top-dose reporter change, positive = more light; 340,000 tested, under 10 active; active = well fitted rising curve with a large enough effect; inconclusive = small, poorly fitted or top-dose-only effect; inactive = no such curve, though single readings can be large or run the other way;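 also: % of control where 0% means no effect; miR-21 action dims this reporter so a rising signal means less miR-21 action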
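Using DMEM plus 10% FBS, HeLa miR-21-FLuc cells are incubated with test compounds (final up to about 40uM) for 48 hours; firefly luciferase signal is then imaged following reagent-mediated lysis.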
Rango-impB inh: inhibitors of Rango-importin beta complex formation | 0.031% of 340,000 active | Q14974 | Rango CFP/YFP FRET sensor + importin beta, 45 min | Potency, µM (highest dose often 92.2 µM), for inactives: at the highest dose inhibition of complex formation; active = rising FRET ratio curve, often small or poorly fitted; inconclusive = mostly compound fluorescence or quenching in the first reads; inactive = flat curves in all reads;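 also: potency is read from the fitted curve at half-maximal effect; 0% = DMSO wells and 100% = buffer wells lacking importin beta; nearly all actives have a fitted effect of over 15% in size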
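Inhibition scored from the CFP 486 nm/YFP 530 nm FRET ratio 45 min after adding 0.125 microM importin beta to 50 nM Rango biosensor preincubated 5 min with compound (room temperature, PBS with DTT, Tween-20, BSA). No-importin wells as positive control.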
Rango dissoc inh: prevents RanGTP from dissociating the Rango-importin beta complex | Biochemical FRET Rango-importin beta, RanGTP-induced dissociation | Potency, µM (top dose mostly 46.1 µM), without a hit: top-dose activity change, negative = inhibition | 0.071% of 340,000 active | O95149+P62826 | AID 540253; active means falling FRET ratio curve, often poorly fitted, with flat reads before Ran was added; inconclusive means other falling curves, or compound fluorescence or quenching; inactive means flat or rising ratio curve;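 also: potency is read from the fitted curve at half-maximal effect; % of control where 0% means no effect; nearly all actives have a fitted effect of over 45% in size; -100% = wells without RanGTP and RCC1; the record marks most hits as doubtful in a second field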
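Rango (0.1 uM)–importin beta (0.25 uM) complex; RanGTP-RCC1 trigger; 45 min RT; CFP/YFP FRET read.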
GLA inh pH 4.5: alpha-galactosidase A (human) inhibition, pH 4.5 | purified enzyme, 4-MU-alpha-Gal fluorescence, pH 4.5 | activity change, negative = inhibition, % at 105 µM | 230,000 tested, under 10 active | AID 1467; inconclusive = small, poorly fitted or top-dose-only inhibition, or a rising curve; inactive = flat fitted curve, though single readings scatter; no compound was filed as active;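 also: 0% = full activity with enzyme and -100% = basal without enzyme; dose as in the result columns while the protocol names 77 µM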
Target sequence (P06280 whole entry, looked up): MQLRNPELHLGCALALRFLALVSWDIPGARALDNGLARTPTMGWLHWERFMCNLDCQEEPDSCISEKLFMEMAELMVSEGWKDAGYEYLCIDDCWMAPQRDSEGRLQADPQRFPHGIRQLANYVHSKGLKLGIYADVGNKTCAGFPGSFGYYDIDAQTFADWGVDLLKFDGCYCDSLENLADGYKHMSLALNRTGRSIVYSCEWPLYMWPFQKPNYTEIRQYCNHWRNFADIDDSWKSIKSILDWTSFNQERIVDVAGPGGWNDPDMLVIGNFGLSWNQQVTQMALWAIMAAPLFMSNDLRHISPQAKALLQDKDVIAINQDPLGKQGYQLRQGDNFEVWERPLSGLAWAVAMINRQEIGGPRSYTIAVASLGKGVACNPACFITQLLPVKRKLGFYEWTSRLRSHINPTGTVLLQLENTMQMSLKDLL
Active calls of the source: *; ? = inconclusive; . = no result given; & = joins results of further samples.

SMILES | miR-21 reporter | Rango-impB inh | Rango dissoc inh | GLA inh pH 4.5
CCOC(=O)c1c(-n2c(C)cc(C=C3C(=O)NC(=O)NC3=O)c2C)sc2c1CCCC2 | -2% | 0.2% | 16% | 7
Cc1ccc(-n2c(O)c(/C=N/N3CCCCC3c3cccnc3)c(=O)[nH]c2=S)cc1 (stereo not drawn) | -9% | 5.6% | 12% | 9
C[C@@H]1NCCc2cc(O)c(O)cc21 | . | 0.1% | 5% | 2
Nc1ccc(Cl)cc1C(=O)c1ccccc1Cl | -6% | 0.6% | -9% | -14
O=C1CC23c4ccccc4N4C(=O)CC5OCC=C6CN1C2CC6C5C43 (stereo not drawn) | . | -0.6% | -6% | .
C=CCn1c(O)c(C(C)=NC(C)c2ccccc2)c(=O)[nH]c1=O (stereo not drawn) | 7% | 0.0% | 1% | -1
Cc1ccc(C2N(c3ccccn3)C(=O)C3CCCN32)o1 (stereo not drawn) | -1% | -3.4% | 0% | 0
COc1ccccc1CCNC1CCCC(C)C1 (stereo not drawn) | -3% | 0.3% | 0% | 0
O=C1NC(=O)N(Cc2ccccc2Cl)C(=O)/C1=C/c1cccs1 | 20% | -1.3% | -14% | 1
CCC(=NCCN1CCOCC1)c1c(O)n(C2CCCCC2)c(=O)[nH]c1=O | 0% | ? | 14% | -18
O=C1NC(=O)N(c2ccccc2)C(=O)/C1=C\c1ccc([N+](=O)[O-])s1 | 1% | -1.6% | -13% | -2
NC1C2CN3CCN(C2)CC1(c1ccccc1)C3 (stereo not drawn) | -5% | ? | -15% | 0
CCCN1CCC[C@@H](c2cccc(O)c2)C1 | . | 2.1% | 5% | .
COC[C@]12CN(C)C3C4[C@H](OC)[C@H]1C3([C@@H](OC)C[C@H]2O)[C@@H]1C[C@@]2(O)[C@H](OC(=O)c3ccccc3)[C@@H]1[C@]4(OC(C)=O)[C@@H](O)[C@@H]2OC | . | -1.0% | 9% | .
COC(=O)C(O)(c1ccc(N(C)S(=O)(=O)c2ccccc2)cc1)C(F)(F)F (stereo not drawn) | -12% | 2.9% | 37% | -1
COc1ccc(C(C)=O)cc1CC(C(=O)c1ccc(F)cc1)N(C)C (stereo not drawn) | -3% | 1.6% | 0% | 1
CCOc1ccccc1N1C(=O)NC(=O)C(CCc2ccncc2)(CCc2ccncc2)C1=O | -1% | 1.0% | 14% | -2
O=C1NC(=O)[C@]2(Cc3ccccc3N3CCN(c4ccccc4)CC32)C(=O)N1c1ccccc1 (stereo partly drawn) | -18% | -5.4% | -15% | 1
N#CSCC(=O)N1c2ccccc2CCc2ccccc21 | ? | 0.6% | 0% | -9
CCC1(O)C(=O)OCc2c1cc1n(c2=O)Cc2cc3cc(O)ccc3nc2-1 (stereo not drawn) | . | ? | ? | .
O=C(O)Cn1cc(C=C2C(=O)NC(=O)NC2=O)c2ccccc21 | 0% | -1.6% | -2% | .
CCOC(=O)[C@]12Cc3cc(N(C)C)ccc3[C@H]1N(Cc1ccccc1)C(=O)c1ccccc12 | . | 3.8% | 9% | .
C1CCC2CCCCC2C1 (stereo not drawn) | . | -0.9% | 0% | .
C=CC1CN2CCC1CC2C(O)c1ccnc2ccccc12 (stereo not drawn) | . | -1.2% | 13% | 3&-3
CC(N)Cc1c[nH]c2ccc(Cl)cc12 (stereo not drawn) | . | -1.3% | 7% | .
COC(=O)c1c(C)n(Cc2ccc3c(c2)OCO3)c2ccc(O)cc12 | 0% | -3.7% | -5% | -14
Cc1ccc(/C=C2\C(=O)NC(=O)N(CC3CCCO3)C2=O)s1 (stereo not drawn) | -11% | -0.1% | 10% | 4
O=c1[nH]c(=O)n(CCc2ccccc2)c(O)c1/C=N/N1CCOCC1 | -1% | 0.3% | -5% | 4
Cc1ccsc1C(=O)C1CCCN(Cc2cnn(C(C)C)c2)C1 (stereo not drawn) | -1% | ? | 0% | -3
CCC(=NCC1CCCO1)c1c(O)n(Cc2ccccc2)c(=O)[nH]c1=O (stereo not drawn) | 3% | 5.2% | -5% | 3
Cc1ccc(C(C)(C)NC(=O)C2CCC(=O)N(C3CCCCCC3)C2)cc1 (stereo not drawn) | -41% | 0.3% | -5% | .
O=C1NC(=O)N(Cc2ccco2)C(=O)/C1=C/c1ccc(-c2cccc([N+](=O)[O-])c2)o1 | -6% | -0.8% | ? | 1
O=[N+]([O-])c1cccc(CN2CCN(Cc3ccc(Cl)cc3)CC2)c1 | 7% | 7.6% | -14% | -2
COc1ccc(Cl)cc1C(=O)C1CCCN(CCO)C1 (stereo not drawn) | -5% | 2.9% | -6% | 2
CC12CCC(O)CC1CCC1C2CCC2(C)C(C3=CC(=O)OC3)C(O)CC12O (stereo not drawn) | . | 1.0% | 8% | .
CS(=O)(=O)N1CCN(C(=N)N[N+](=O)[O-])CC1 | -2% | 2.5% | 4% | -12
CN1CCCC(C(O)(c2ccccc2)c2ccccc2)C1 (stereo not drawn) | -1% | -1.2% | 9% | -8
CCOC(=O)c1c(C)n(CC(O)CN2CCOCC2)c2cc(Br)c(OC)cc12 (stereo not drawn) | 11% | -2.6% | -10% | -1
Cc1ccc(N2C(=O)NC(=O)/C(=C\c3ccc(N4CCOCC4)cc3)C2=O)cc1 | -2% | 0.5% | 0% | -9
CC(C)c1ccc(-n2c(O)c(/C=N/NC(=O)c3ccccc3O)c(=O)[nH]c2=S)cc1 | -5% | ? | ? | -9

Seven entries out of the list, ordered by heavy-atom count, lowest first:
SMILES | miR-21 reporter | Rango-impB inh | Rango dissoc inh | GLA inh pH 4.5
CS(=O)(=O)N1CCN(C(=N)N[N+](=O)[O-])CC1 | -2% | 2.5% | 4% | -12
COc1ccc(Cl)cc1C(=O)C1CCCN(CCO)C1 (stereo not drawn) | -5% | 2.9% | -6% | 2
CN1CCCC(C(O)(c2ccccc2)c2ccccc2)C1 (stereo not drawn) | -1% | -1.2% | 9% | -8
O=[N+]([O-])c1cccc(CN2CCN(Cc3ccc(Cl)cc3)CC2)c1 | 7% | 7.6% | -14% | -2
CCOC(=O)c1c(C)n(CC(O)CN2CCOCC2)c2cc(Br)c(OC)cc12 (stereo not drawn) | 11% | -2.6% | -10% | -1
Cc1ccc(N2C(=O)NC(=O)/C(=C\c3ccc(N4CCOCC4)cc3)C2=O)cc1 | -2% | 0.5% | 0% | -9
CC(C)c1ccc(-n2c(O)c(/C=N/NC(=O)c3ccccc3O)c(=O)[nH]c2=S)cc1 | -5% | ? | ? | -9

New compounds follow.
SMILES | miR-21 reporter | Rango-impB inh | Rango dissoc inh | GLA inh pH 4.5
CC1=Nc2cc(C(=O)N3CCC4(CC3)OCCO4)ccc2Sc2ccc(Cl)cc21 | -8% | -4.8% | 20% | .
CCN1CCN(c2nc([N+](=O)[O-])nn2C)CC1 | -4% | 3.4% | -4% | 4
CCCCn1c(=O)c(C(=O)Nc2nc3ccccc3[nH]2)c(O)c2ccccc21 | -14% | . | . | -5
Cc1nc(CCl)cc(=O)[nH]1 | 2% | 0.2% | 18% | -6
O=C(C1CC(=O)N(c2ccc(F)c(Cl)c2)C1)N1CCC2(CC1)OCCO2 (stereo not drawn) | -3% | -0.5% | 9% | 5
COc1ccc(C2C([N+](=O)[O-])=C(N)Oc3c2c(=O)oc2ccccc32)cc1 (stereo not drawn) | -6% | . | . | 5
c1ccc(CC2CCCCN2)cc1 (stereo not drawn) | 0% | ? | -18% | .
CCCNC(=O)N1[C@H]2CC[C@@H]1C(C(=O)OC)=C(c1ccccc1)C2 | . | -3.5% | 20% | .
CC1=CC(=C2C(=O)NC(=O)NC2=O)C=C(C(F)(F)F)N1C(C)C | -15% | -0.3% | -12% | -1
Cc1ccc(-c2nc3ccccc3c(=O)n2-c2cccc(C)n2)cc1 | -1% | -0.7% | 2% | 5

One compound at a time, as listed above. Values in the order: miR-21 reporter, Rango-impB inh, Rango dissoc inh, GLA inh pH 4.5
`CCN1CCN(c2nc([N+](=O)[O-])nn2C)CC1` is entered as -4%, 3.4%, -4%, 4
`CCCCn1c(=O)c(C(=O)Nc2nc3ccccc3[nH]2)c(O)c2ccccc21` is entered as -14%, ., ., -5

Additional compounds follow:
SMILES | miR-21 reporter | Rango-impB inh | Rango dissoc inh | GLA inh pH 4.5
COC(=O)N(c1ccccc1)P1(=S)OCCO1 | -2% | -4.3% | 3% | 1
CC[C@H]1CC2CN3CCc4c([nH]c5ccccc45)C(C(=O)OC)(C2)C13 (stereo partly drawn) | . | 5.3% | 3% | .
CCCCCCC(=O)c1c(O)n(-c2ccc(OC)cc2)c(=O)[nH]c1=O (tested in a mixture with another compound) | -3% | -0.7% | 3% | -1
CCCCCCn1c(O)c(C=Nc2c(C)n(C)n(-c3ccccc3)c2=O)c(=O)[nH]c1=O | -1% | ? | ? | -1
CCC(=NCCc1ccccc1)c1c(O)n(C2CCCCC2)c(=O)[nH]c1=O | -13% | 0.0% | -19% | -2
CC[C@@H](C(N)=O)N1CCCC1=O | -7% | . | . | -3
O=c1c2ccccc2nc(SCC2CCCCO2)n1-c1ccccc1 (stereo not drawn) | -1% | -2.5% | -19% | 5
CCN1CCN(C(=O)COc2cc(=O)n(CC)c3ccccc23)CC1 | -6% | 2.1% | 1% | 6
COc1ccc(-n2c(/C=C/c3ccc4c(c3)OCO4)nc3ccccc3c2=O)cc1 | 4% | -5.7% | -17% | -12
Fc1ccc(-c2nc3c(-c4ccc(F)cc4)cnn3cc2CCN2CCOCC2)cc1 | 2% | ? | -8% | -2
COc1ccc(C2SCC(=O)Nc3c2c(C)nn3-c2ccccc2)cc1 (stereo not drawn) | 0% | -1.6% | 8% | 7
COC(=O)C1=C(c2ccccc2OCc2ccccc2)C[C@@H]2CC[C@H]1N2C(=O)NCc1ccc(C(F)(F)F)cc1 | . | -5.0% | 17% | .
O=C(c1cc(F)ccc1F)C1CCCN(CCCc2ccccc2)C1 (stereo not drawn) | -3% | -3.1% | 1% | -13
O=C1NC(=O)N(c2ccc3c(c2)OCO3)C(=O)/C1=C/c1ccsc1 | -3% | -4.9% | 11% | 5
O=C(Cc1ccccc1)N1CCN(Cc2ccccn2)CC1 | 0% | 4.7% | 0% | 2
O=C(c1ccc(-c2ccccc2)c(F)c1)C1CCCN(CCO)C1 (stereo not drawn) | -19% | -1.1% | -4% | -24
O=C1NC(=O)C(=Cc2cn(CCOc3ccc4c(c3)OCO4)c3ccccc23)C(=O)N1 | -5% | -0.6% | ? | -7
C=CCn1c(O)c(C(CC)=Nc2cc(OC)ccc2OC)c(=O)[nH]c1=O | -11% | -0.6% | -16% | -8
COc1ccc(CCNC(=O)c2c(N)n(CCN3CCOCC3)c3nc4ccccc4nc23)cc1 | -6% | ? | ? | 0
CCOP(=S)(OCC)SCSP(=S)(OCC)OCC | . | 1.6% | -22% | .
CC(c1ccccc1F)n1cc(C(=O)Nc2ccc3nc[nH]c3c2)nn1 (stereo not drawn) | -30% | 3.2% | 0% | 3
CC1CN=C(Nc2ccc(F)cc2)S1 (stereo not drawn) | -5% | 1.0% | -1% | -12
C=C(C=O)CC1CC(O)[C@]2(C)OC3CC4OC5C[C@]6(C)O[C@]7(C)CCC8OC9C[C@]%10(C)OC%11C(C)=CC(=O)OC%11CC%10OC9C[C@@H](C)C8OC7CC6O[C@]5(C)CC5OC5C4OC3CC2O1 (stereo partly drawn) | -2% | 7.1% | -9% | -2
Clc1ccccc1Nc1ncnc(-n2cccc2)n1 | -53% | -1.9% | 4% | -1
CC(C)CC12CN3CCN(CC(C3)/C1=N/O)C2 | -6% | 2.4% | 12% | 3
O=C1NC(=S)SC1=Cc1ccc(N(CCCl)CCCl)cc1 | . | ? | ? | .
O=C(COC(=O)c1cccc(O)c1)Nc1ccc(Cl)cc1C(=O)c1ccccc1 | -9% | -2.2% | -9% | -3
CCc1ccc(CNCCc2ccc(F)cc2)cc1 | 1% | 5.9% | 1% | 7
CCCCCCNC(=O)N[C@H](Cc1ccc(O)cc1)C(=O)NCCC[C@H]1CN2C(=NC[C@H]2CCC)N1CC1CCC1 | 0% | . | . | -2
c1cncc(CNCCc2c[nH]c3ccccc23)c1 | -3% | ? | 7% | -1
CCC(=O)Nc1ccc(Cl)c(Cl)c1 | . | 1.5% | 4% | 2

Bioassay records as filed in PubChem BioAssay.

Not all compounds are listed; the hit share may differ from the screen's.
